Compound activity from PubChem BioAssay.
Mtb growth – M. tuberculosis H37Rv growth inhibitors, H37Rv strain (AID 1626) | M. tuberculosis H37Rv growth inhibition; higher % means a stronger effect | inhibition, % at 10 µM; hits with a dose series show IC50 in µM | actives 0.95% (n = 220,000);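 active = confirmed in a dose series; inconclusive = inhibition above 80% but not taken into the dose series; inactive = below 80% or under 30% at every dose of the series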;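 note: bacteria incubated seven days before Alamar blue readout; 0% = bacteria only wells and 100% = bacteria with antibiotic wells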
YopH PTP inh – blocks Yersinia enterocolitica YopH tyrosine phosphatase | fluorescence Ex485/Em525 | inhibition, %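 (about 10 µM by stock and volumes)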 | actives 0.16% (n = 140,000);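 active = inhibition of 50% or more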;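 note: controls were vehicle for no effect and minimum signal wells for full effect; inactives centre near -20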
Arbovirus inh – blocks arbovirus infection; AID 1251; actives 0.37% (n = 200,000); inhibition, % at 10 µM; arbovirus infection cell-based antiviral screen;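 active = inhibition from about 30%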;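 note: bluetongue infection of BSR cells; cell survival read as ATP light after 72 h; 0% = infected wells without compound and 100% = uninfected wells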
Mtb betalactam – beta-lactam sensitization of Mtb H37Rv; M. tuberculosis H37Rv growth with meropenem, percent inhibition; hits of this screen are not shown here; inhibition, % at 25 µM; actives 0.27% (n = 330,000); AID 434955;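 active = about 74% or more and at least 40 points above the plate without the antibiotic, then above 30% in a dose series; inconclusive = first-round hits that could not be retested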;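 note: growth measured after seven days incubation then overnight dye step; 0% = bacteria only wells and 100% = bacteria with antibiotic; twin plates without the antibiotic show which effects depend on it; some results filed as inactive read as strong as hits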
RecA splice inh – blocks M. tuberculosis RecA intein splicing. inhibition, %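 (about 9 µM by stock and volumes)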. AID 2221. actives 0.75% (n = 290,000). cell-free RecA intein splicing, fluorescence. P9WHJ3; in the data active = inhibition above about 30%; inconclusive = no clear call, values can overlap the other calls;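 note: 0% = vehicle wells and 100% = reference inhibitor control wells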
Target sequence (P9WHJ3 whole entry, looked up, canonical isoform): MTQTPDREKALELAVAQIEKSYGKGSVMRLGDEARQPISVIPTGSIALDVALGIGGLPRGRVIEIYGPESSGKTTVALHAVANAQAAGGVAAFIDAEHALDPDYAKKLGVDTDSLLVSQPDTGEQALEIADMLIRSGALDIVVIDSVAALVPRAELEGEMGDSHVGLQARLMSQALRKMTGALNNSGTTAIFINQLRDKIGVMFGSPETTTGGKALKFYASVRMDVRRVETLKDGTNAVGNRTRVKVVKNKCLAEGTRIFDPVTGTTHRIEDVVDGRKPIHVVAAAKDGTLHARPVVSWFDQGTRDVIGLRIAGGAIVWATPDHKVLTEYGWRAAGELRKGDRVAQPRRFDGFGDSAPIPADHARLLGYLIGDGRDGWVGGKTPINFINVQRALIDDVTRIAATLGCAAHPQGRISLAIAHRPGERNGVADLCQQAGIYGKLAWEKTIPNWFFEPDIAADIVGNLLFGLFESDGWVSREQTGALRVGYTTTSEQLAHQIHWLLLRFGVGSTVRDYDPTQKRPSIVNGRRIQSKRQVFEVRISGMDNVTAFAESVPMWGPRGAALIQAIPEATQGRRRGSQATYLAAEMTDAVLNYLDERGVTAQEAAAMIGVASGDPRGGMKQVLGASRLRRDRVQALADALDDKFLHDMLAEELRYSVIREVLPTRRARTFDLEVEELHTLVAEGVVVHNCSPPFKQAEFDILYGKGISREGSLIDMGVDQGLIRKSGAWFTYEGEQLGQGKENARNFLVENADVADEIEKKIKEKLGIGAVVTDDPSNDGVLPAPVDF
Arbovirus inh repeat – second read-out of Arbovirus inh, no call of its own (marks repeat the call); inhibition, %; measured here: 10K subset replicate screen; many hits read low in the repeat;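 first of two repeat runs on a subset; 0% = infected and 100% = uninfected wells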
* hit, by the source's call; ? = inconclusive; · = no result given; & = joins results of further samples. These rows are one share of the data (hit frequency here may not be typical).

SMILES | Mtb growth | YopH PTP inh | Arbovirus inh | Mtb betalactam | RecA splice inh | others
COC(=O)/C=C/c1ccc(-n2ccnc2)cc1 | 3.2% | · | 1.7 | 4.9 | -0.9
CN(Cc1c(C(=O)N/N=C/c2ccccc2)nnn1-c1nonc1N)c1ccccc1 | · | · | · | -5.6 | 3.7
COc1ccc(Cl)cc1N(C(C)=O)c1nc(C)cc(C)c1C#N | · | · | · | 0.9 | -3.2
CC(C)CCn1c(=O)c(C(=O)NCc2ccco2)c(O)c2ccccc21 | -3.2% | · | · | -13.9 | 3.6
O=c1[nH]nnc2c1sc1nc(N3CCOCC3)c3c(c12)CCCC3 | · | · | · | 0.8 | 0.4
Cc1cc(C(F)F)n2nc(C(=O)Nc3ccc(S(=O)(=O)N4CCCCCC4)cc3)nc2n1 | -4.8% | -33.0 | 17.9 | -0.4 | 8.3
CCS(=O)(=O)c1ccc(O)c(NC(=O)Nc2cccc3ccccc23)c1 | -3.1% | · | · | -1.7 | 2.6
CCOc1ccc(NC(=O)C/C(C)=N/NC(=O)COc2ccc(Br)cc2C)cc1 | · | · | · | 90.8 | -4.9
O=C(/C=C/c1ccc([N+](=O)[O-])cc1)NCc1ccco1 | -3.4% | -21.1 | -8.2 | 4.3 | 0.9
CN(CCO)c1nc(N)c(C#N)c(CC#N)c1C#N | -7.6% | · | · | -1.2 | ·
Cn1cnnc1SCC(=O)Nc1ccccc1F | -1.4% | · | 2.9 | -7.2 | -0.1
COc1ccc(-c2nc(-c3ccc(C(=O)O)cc3)no2)cc1 | -3.6% | · | · | 96.2 | 0.6
Cc1ccccc1NC(C)C(=O)N/N=C/c1ccccc1OCc1cccc(Br)c1 (stereo not given) | 7.6% | 5.1 | -17.6 | -3.8 | 7.9
CCS(=O)(=O)n1nc(-c2ccccc2)nc1NCc1ccco1 | 2.9% | -22.6 | 10.5 | -8.2 | 2.1
CCOc1ccc(CCNC(=O)CS(=O)(=O)Cc2nc(-c3ccc(OC)cc3)oc2C)cc1 | · | · | · | -8.9 | -0.7
COc1ccc(C(C(=O)NC(C)(C)C)N(C(=O)CCC(=O)Nc2cc(C)on2)c2ccccc2F)cc1 (stereo not given) | · | · | · | 71.8 | -1.5
CCC(c1nnnn1CCc1ccccc1)N1CCN(c2ccc(OC)cc2)CC1 (stereo not given) | 7.1% | -8.2 | 2.8 | -4.9 | -1.7
Cc1ccc(-n2nc3ccc(NC(=O)/C=C/c4ccco4)cc3n2)cc1 | 10.2% | -16.3 | 5.0 | 9.6 | 1.6
O=C(CCc1ccccc1)c1nnc(-c2ccccc2)o1 | 4.6% | · | 4.3 | -3.6 | ·
O=C(O)C(Cc1c[nH]c2ccccc12)N1C(=O)c2ccccc2C1=O (stereo not given) | 1.6%&0.8% | · | · | -9.1 | 0.3
Cc1cc(C)n2nnnc2n1 | -8.6% | · | · | 18.9 | 5.3
O=C(Nc1cccnc1)c1cccnc1Cl | -3.7% | 19.2 | 0.1 | 0.0 | -0.8
CCCCn1nnnc1SCC(=O)c1cc(Cl)ccc1OC | 2.9% | 26.3 | 6.3 | -1.2 | 1.4
O=C(N/N=C/c1ccc(O)cc1)Nc1cccc2nsnc12 | 0.2% | · | 11.3 | 36.1 | 5.1
COc1ccc(-n2c(-c3ccccc3Br)nc3ccccc3c2=O)cc1 | · | · | · | -6.0 | 4.0
Cc1ccc2nc3n(c(=O)c2c1)CCCCC3 | -15.1% | -15.1 | -8.5 | -8.2 | -0.3
CSc1ccccc1NC(=O)COc1nsnc1N1CCOCC1 | · | · | · | 5.2 | -0.5
NC(=S)N=Nc1c(O)n(Cc2ccc(F)cc2)c2ccccc12 | 4.6% | -26.5 | -3.3 | 4.0 | 3.4
COc1nccnc1NS(=O)(=O)c1ccc(NC(=O)c2cccc(C)c2)cc1 | 2.3% | · | 3.8 | 2.9 | 5.2
CCCCCCNS(=O)(=O)c1ccccc1Br | -2.6% | · | · | -8.9 | 8.2
CCCCC1(Cc2ccc(OC)c([N+](=O)[O-])c2)C(=O)N(c2ccccc2)N(c2ccccc2)C1=O | -9.5% | -14.7 | 7.5 | 3.4 | -0.6
O=C(Cc1cccs1)N1CCN(S(=O)(=O)c2ccc(Br)cc2)CC1 | 6.0% | -21.1 | -0.7 | -0.6 | -2.1
Cc1ccc(C)c(OCC(=O)Nc2nc3ccc([N+](=O)[O-])cc3s2)c1 | 3.5% | -17.3 | -1.0 | -7.3 | -0.9
Cc1noc(C)c1C(=O)N1CCc2ccccc21 | -8.8% | -37.1 | 0.7 | 3.7 | 0.5
COc1ccccc1NC(=O)Cn1nnc(C(=O)NCc2cccs2)c1N | · | · | · | 0.9 | 0.0
CCc1ccc2oc(=O)cc(CN3CCCCC3)c2c1 | · | · | · | -0.2 | 1.8
COC(=O)c1cc(S(=O)(=O)Nc2cc(OC)cc(OC)c2)c[nH]1 | · | · | · | 3.0 | -0.5
C=CCn1c(SCC(C)=O)nnc1-c1cc(-c2ccccc2)sc1N | -8.5% | -18.8 | -13.0 | -6.0 | 6.0
O=C(CSc1nnc(CN2CCOCC2)n1-c1ccc(Cl)cc1)N1CCc2ccccc21 | -4.5% | 25.9 | · | -2.1 | 0.5
O=C(O)CCCN1C(=O)/C(=C/c2cn(-c3ccccc3)nc2-c2cccs2)SC1=S | 3.3% | · | -0.2 | · | ·
COc1cc2c(cc1OC)CN(C(=O)c1ccco1)CC2 | 6.0% | · | 14.3 | -3.6 | -2.2
CCc1ccc(S(=O)(=O)c2ccc(-n3nc(C)cc3N)cc2)cc1 | -1.8% | · | 33.0* | -1.4 | 1.9
COc1ccc(NS(=O)(=O)c2ccc(N3CCCC3)c(NC(=S)Nc3ccc(SC(F)F)cc3)c2)cc1 | ? | -20.1 | 7.4 | 88.1 | 6.9
CCN1CCN(c2cc(C)c3cc(NC(=O)c4ccncc4)ccc3n2)CC1 | 5.6% | -40.7 | -6.9 | -7.4 | -0.2 | Arbovirus inh repeat=-7.2
COc1ccc(C(C)=O)cc1COc1ccc([N+](=O)[O-])c(C)c1 | 7.4% | · | -3.9 | 6.3 | 0.2
CC1CCc2[nH]c3ccc(C(=O)N(C)CC(=O)Nc4cccc(F)c4)cc3c2C1 (stereo not given) | · | · | · | 3.7 | -0.9
CC1(C(=O)NCCCN2CCOCC2)Oc2cccnc2NC1=O (stereo not given) | 3.8% | · | 2.3 | -1.4 | -2.3
Cc1ccc2nc(N/C(=N/S(=O)(=O)c3ccc(F)cc3)c3ccccc3)sc2c1 | 6.2% | · | 15.1 | -4.8 | -1.9
COc1cccc(NC(=O)[C@H](CC(C)C)NC(=O)[C@@H]2Cc3ccccc3CN2)c1 | · | · | · | 5.2 | 1.8
COc1ccccc1O | · | · | · | -10.9 | 4.4

The last six compounds of the part above come first, to join the parts:
SMILES | Mtb growth | YopH PTP inh | Arbovirus inh | Mtb betalactam | RecA splice inh | others
COc1ccc(C(C)=O)cc1COc1ccc([N+](=O)[O-])c(C)c1 | 7.4% | · | -3.9 | 6.3 | 0.2
CC1CCc2[nH]c3ccc(C(=O)N(C)CC(=O)Nc4cccc(F)c4)cc3c2C1 (stereo not given) | · | · | · | 3.7 | -0.9
CC1(C(=O)NCCCN2CCOCC2)Oc2cccnc2NC1=O (stereo not given) | 3.8% | · | 2.3 | -1.4 | -2.3
Cc1ccc2nc(N/C(=N/S(=O)(=O)c3ccc(F)cc3)c3ccccc3)sc2c1 | 6.2% | · | 15.1 | -4.8 | -1.9
COc1cccc(NC(=O)[C@H](CC(C)C)NC(=O)[C@@H]2Cc3ccccc3CN2)c1 | · | · | · | 5.2 | 1.8
COc1ccccc1O | · | · | · | -10.9 | 4.4
Cc1cccc(C(=O)NNC2=CC(=O)CC(C)(C)C2)c1O | -1.2% | · | · | 1.5 | -2.4
COc1cc(OC)c(OC)cc1CN1CCN(Cc2ccco2)CC1 | · | · | · | -10.5 | 0.2
CCC1(c2ccccc2)NC(=O)N(CC(=O)Nc2ccc(N3CCCC3)cc2C)C1=O (stereo not given) | · | · | · | 0.9 | 0.4
CC(=O)N/C(=C\c1ccccc1)C(=O)OCC(=O)N(C)C1CCCCC1 | 3.1% | -22.7 | 2.3 | 5.7 | 1.5
O=C(N/N=C/c1ccc(O)c(O)c1)NC12CC3CC(CC(C3)C1)C2 | · | · | · | -3.6 | -1.5
Fc1ccccc1/C=N/Nc1cc(N2CCCCC2)ncn1 | · | · | · | -5.9 | -3.9
O=C(NC(=O)N1CCN(c2ccccc2F)CC1)c1ccccc1 | 3.4% | -54.9 | 0.0 | -0.6 | 1.3
Cc1ccc(C2=Nc3ccccc3N=C(C(Cl)Cl)C2)cc1 | 4.7% | · | -4.9 | 0.6 | 8.2
COc1ccc(C(=O)NC2CC2)cc1OC1CCN(C(C)CSC)CC1 (stereo not given) | · | · | · | -3.8 | 0.4
Cc1ccc(-c2nc3ccccc3c(=O)n2-c2cc(C)ccn2)cc1 | 9.5% | 1.4 | 7.1 | -4.9 | -0.6
CC(=O)c1cc(C#N)c(SCc2ccc([N+](=O)[O-])cc2)nc1C | 0.6% | · | 1.8 | -0.4 | -4.8
CN(c1ccc(O)cc1)c1nc(-c2cccs2)cs1 | 8.6% | · | 1.5 | 9.3 | 10.3
Cc1ccc(N(CC(=O)NC2CCCCC2)C(=O)CNC(=O)c2ccco2)cc1C | · | · | · | 0.0 | 2.8
O=C(Nc1ccc(Cl)c(C(F)(F)F)c1)N1CCCC(O)C1 (stereo not given) | -9.1% | -30.2 | 12.2 | -16.4 | -0.1
O=C(c1cc([N+](=O)[O-])ccc1N1CCCCC1)N1CCc2ccccc21 | 2.3% | -12.4 | 1.1 | -3.5 | ·
Cc1nn(CC(=O)N2CC(=O)Nc3ccccc32)c(C)c1[N+](=O)[O-] | -7.3% | · | 1.3 | 1.7 | 1.4
Cc1ccc(NC(=O)c2ccc3[nH]c(=O)c(=O)[nH]c3c2)nc1 | · | · | · | -8.6 | -0.2
COc1cc(OC)c(C2SCCN2S(=O)(=O)c2ccc(F)cc2)cc1OC (stereo not given) | -2.5% | -3.3 | 18.4 | -6.0 | -0.3
CCCN(CC(=O)Nc1ccc(Cl)cc1Cl)C(=O)/C=C/c1ccco1 | · | -25.7 | -1.9 | 1.4 | -0.5
Cn1c(Cn2cnc3ccccc32)nc2ccccc21 | 0.8% | -8.2 | 1.2 | -12.8 | -0.9
O=C(CCN1C(=O)c2ccccc2C1=O)Nc1cccc(S(=O)(=O)N2CCCCC2)c1 | -4.2% | -11.2 | -1.2 | -15.3 | 1.3
CCOc1cccc(=O)c2c(C)oc(C)c12 | 2.3% | 3.5 | 9.8 | -11.1 | -1.5
Cc1nc2ccc([N+](=O)[O-])cc2c(=O)n1Cc1ccccc1Br | · | · | · | 0.2 | 0.9
O=C(NC1CCCC1)C(c1cccs1)N(CC1CCCO1)C(=O)Cc1cccs1 (stereo not given) | 5.8% | 2.7 | -2.2 | -6.2 | 0.6
COc1ccc(CNC(=O)COC(=O)c2ccc(Br)cc2)cc1 | 5.1% | · | 0.8 | -5.9 | -0.9
COC(=O)c1cc2occc2n1CC(=O)Nc1cc(OC)cc(OC)c1 | -10.6% | -29.1 | -10.2 | -6.9 | -2.6
Cc1ccc2nc(Cl)nc(-c3ccccc3)c2c1 | -2.9% | · | 2.5 | -11.0 | 3.0
COc1cccc(NC(=O)N2C3CCCC2CC(NC(=O)C(C)(C)C)C3)c1 (stereo not given) | · | · | · | -5.5 | -5.2
C[C@@H](NC(=O)CN1C(=O)c2ccccc2S1(=O)=O)c1ccccc1 | · | · | · | -1.6 | 10.3
O=C(/C=C/c1ccc(Cl)c(Cl)c1)NCCCn1ccnc1 | · | · | · | 3.0 | 1.5
O=c1[nH]c(=O)n(CCC2=CCCCC2)c(O)c1/C=N/Nc1ccccc1 | ? | -21.1 | -26.8 | 89.9 | -4.3
S=C(NCCCc1ccccc1)NCc1ccccc1 | · | · | · | 7.8 | 3.2
Cc1ccc(N=Cc2c(O)c3ccccc3oc2=O)cc1F | · | · | · | 7.8 | -3.2
O=C(CSc1nc2ccc(NC(=O)C3CCCCC3)cc2s1)NCC1CCCO1 (stereo not given) | 42.2% | -23.7 | -4.5 | 87.9 | 1.4
Cc1ccsc1-c1cc(C(=O)O)c2c(ccc3ccccc32)n1 | · | · | · | 4.7 | -2.5
COc1ccc(S(=O)(=O)N2CCCCC2)cc1NC(=O)CSc1ncnc2ccccc12 | 0.9% | -19.8 | 5.9 | -2.1 | 29.9
CCOc1ccccc1N(CC(=O)N/N=C(\C)c1cccc(Br)c1)S(C)(=O)=O | -3.1% | · | -1.2 | -8.0 | 1.6
